Screening results: PubChem BioAssay, Johns Hopkins Ion Channel Center
KCNQ2 pot = potentiators of rat KCNQ2 potassium channel; O88943; CHO-K1 KCNQ2, FluxOR thallium flux fluorescence; hits give high values; B-score at 10 µM; 310,000 compounds, 0.54% hits;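 active = fluorescence ratio B-score at least 3 SD of library B-scores, with initial fluorescence B-score within 3 SD, cut at about 5.3 in these data; same plate scores as AID 2156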;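 note: B-score of peak minus minimum over baseline fluorescence ratio after K+ and Tl+ stimulus; positive B-score means potentiation of KCNQ2 with more thallium influx and brighter signal; only the inactives scoring about 0 or higher are listed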
Target sequence (O88943 whole entry, looked up): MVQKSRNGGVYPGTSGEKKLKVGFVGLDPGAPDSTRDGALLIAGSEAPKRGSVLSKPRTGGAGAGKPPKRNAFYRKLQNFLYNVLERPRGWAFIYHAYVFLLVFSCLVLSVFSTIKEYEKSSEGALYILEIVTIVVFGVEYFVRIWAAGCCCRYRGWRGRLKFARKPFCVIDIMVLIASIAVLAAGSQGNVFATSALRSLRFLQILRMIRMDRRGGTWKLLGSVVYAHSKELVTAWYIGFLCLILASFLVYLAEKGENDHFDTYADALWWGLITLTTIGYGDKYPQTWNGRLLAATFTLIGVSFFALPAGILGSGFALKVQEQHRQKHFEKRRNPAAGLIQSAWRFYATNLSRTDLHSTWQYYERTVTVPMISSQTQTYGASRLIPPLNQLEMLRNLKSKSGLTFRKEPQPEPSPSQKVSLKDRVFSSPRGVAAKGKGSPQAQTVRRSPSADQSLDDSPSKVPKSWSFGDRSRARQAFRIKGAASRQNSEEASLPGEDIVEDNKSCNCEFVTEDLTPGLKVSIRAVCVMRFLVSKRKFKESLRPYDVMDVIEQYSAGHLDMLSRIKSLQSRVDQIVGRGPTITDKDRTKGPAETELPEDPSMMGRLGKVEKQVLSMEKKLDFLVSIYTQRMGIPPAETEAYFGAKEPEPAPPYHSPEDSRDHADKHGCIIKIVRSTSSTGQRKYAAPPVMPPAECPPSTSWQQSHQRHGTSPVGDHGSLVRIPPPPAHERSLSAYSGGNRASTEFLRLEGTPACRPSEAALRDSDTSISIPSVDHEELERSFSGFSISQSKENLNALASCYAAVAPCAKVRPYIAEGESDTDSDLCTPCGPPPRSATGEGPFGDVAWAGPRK
KCNQ2 pot baseline = recorded beside KCNQ2 pot, whose call it bears; B-score; compound at 10 µM; measured here: initial fluorescence intensity artifact check;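 brightness before thallium and not channel activity; 0 = typical well and far values either way flag optical interference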
* = called active by the depositor. The list is partial; count on the stated rates, not on these rows.

The first two entries, to show the layout:
SMILES	KCNQ2 pot	KCNQ2 pot baseline
CCc1nc(NC(=O)NS(=O)(=O)c2ccccc2C(=O)OC)nc(OC)n1	2.3	-0.8
Cc1ccc(-n2nc3c(c2NC(=O)c2cccs2)CS(=O)(=O)C3)cc1C	1.5	-1.9

The whole of this part, from the first entry:
SMILES	KCNQ2 pot	KCNQ2 pot baseline
CCc1nc(NC(=O)NS(=O)(=O)c2ccccc2C(=O)OC)nc(OC)n1	2.3	-0.8
Cc1ccc(-n2nc3c(c2NC(=O)c2cccs2)CS(=O)(=O)C3)cc1C	1.5	-1.9
CCN1CCN(c2cc(C)c3cc(NC(=S)N(CC)CC)ccc3n2)CC1	1.1	1.3
O=C(NNC(=S)Nc1ccc(F)cc1)[C@H]1C[C@@H]1c1ccccc1	2.1	0.52
COc1ccc(CCNC(=O)c2ccc(C)s2)cc1OC	0.04	-0.68
Nc1nc(SCC(=O)Nc2ccccc2-c2ccccc2)n[nH]1	1	-0.42
O=C(Nc1nc2c(s1)CCCC2)c1ccc(Br)s1	0.07	0.27
Cc1cccc(NC(=S)N2CCC(NC(=O)c3cccc(F)c3)CC2)c1	0.11	0.03
CCn1c(O)c(N=NC2=NC(=O)CS2)c2ccccc21	3.5	-1
Clc1ccc(OCc2cnc(Cl)s2)cc1	0.06	1.6
COc1ccc(/C=N/NC(=S)Nc2c(C)n(C)n(-c3ccccc3)c2=O)cc1OC	0.22	-0.5
CCCCN(C)CCCNC(=O)CN1C(=O)CSc2ccc(S(=O)(=O)N3CCOCC3)cc21	0.2	-0.57
COC(=O)c1cc2occc2n1Cc1nc(-c2ccc(Cl)cc2)oc1C	0.05	-0.01
COC(=O)CCN1CCN(S(=O)(=O)c2cccc(Br)c2)CC1	0.36	0.58
O=C(Nc1ccccc1-c1nnn(CC(=O)N2CCOCC2)n1)c1ccc(F)cc1	2.6	-2.1

A second format for four compounds above:
Every second line gives: KCNQ2 pot	KCNQ2 pot baseline
Cc1ccc(-n2nc3c(c2NC(=O)c2cccs2)CS(=O)(=O)C3)cc1C
  1.5	-1.9
O=C(Nc1nc2c(s1)CCCC2)c1ccc(Br)s1
  0.07	0.27
CCc1nc(NC(=O)NS(=O)(=O)c2ccccc2C(=O)OC)nc(OC)n1
  2.3	-0.8
CCCCN(C)CCCNC(=O)CN1C(=O)CSc2ccc(S(=O)(=O)N3CCOCC3)cc21
  0.2	-0.57

(continued)
SMILES	KCNQ2 pot	KCNQ2 pot baseline
Cc1nn(C)cc1CNC(=O)c1ccccc1Br	0.55	-0.09
CCSc1nnc(NC(=O)CC)s1	0.02	1.6
Cc1ccc(Cn2cccc(NC(=O)c3ccco3)c2=O)cc1	0.8	0.68
COc1ccc(-n2c(C)nn(C)c2=O)cc1	0.71	1.7
COCCCn1c(SCCc2ccccc2)nc2cc(OC)c(OC)cc2c1=N	1.1	-3.3
O=C(O)CC(=O)Nc1ccccc1C(=O)O	0.01	-1.1
COc1ccc(Nc2nc(C)cc(C)n2)cc1Cl	1.1	0.41
O=C(NN1C(=O)c2ccc(-c3ccc4c(c3)C(=O)N(NC(=O)c3cccnc3)C4=O)cc2C1=O)c1cccnc1	1.4	-0.25
CC(C)=CCN1CCN(Cc2cccn2-c2ncccn2)CC1CCO (stereo not given)	0.06	1.1
O=C(CCCC1=NS(=O)(=O)c2ccccc2N1)OCc1ccc(Cl)cc1	2.2	-0.59
Cc1ccc(/C=C/C(=O)C2C(=O)c3ccccc3C2=O)cc1	7.3*	-0.82*
COc1ccc(CCNCc2ccc(OCc3ccc(Cl)nc3)c(OC)c2)cc1OC	0.92	-0.63
COc1cccc(NC(=O)CN(C)C(=O)Cn2cnc3ccccc3c2=O)c1	0.51	0.2
Cc1cc(C)n2nc(S(=O)(=O)N(C)Cc3ccccc3)nc2n1	1.2	2.4
Cc1ccc(S(=O)(=O)N2CCCC2C(=O)OCc2nc3sc(C)c(C)c3c(=O)[nH]2)cc1 (stereo not given)	0.28	-0.89
COc1ccc(N2C(=O)c3ccccc3NC23C(=O)N(C)c2ccccc23)cc1 (stereo not given)	1.1	3
O=S(=O)(c1ccc(Br)cc1)c1nc(-c2ccccc2)oc1NCCN1CCOCC1	0.38	1.4
Cc1cc(N2C(=O)c3ccc(C(=O)Nc4ccc(O)cc4C(=O)O)cc3C2=O)no1	1.1	-0.02
CC(c1n[nH]c(=S)n1-c1ccc(Cl)cc1)N(C)C (stereo not given)	0.43	-1.2
O=C(Oc1coc(CSc2ncccn2)cc1=O)c1ccco1	2.5	-0.78
COc1ccc(CC(=O)N2N=C(c3ccncc3)CC2(O)C(F)(F)F)cc1 (stereo not given)	2.4	0.77
O=C(CSc1nnnn1-c1ccc(O)cc1)NC1CCCCC1	1.9	0.97
Cc1ccccc1C(=O)NC(=S)Nc1sc2c(c1C#N)CCC(C)C2 (stereo not given)	2.1	-0.98
COc1ccc(CC(=O)OC(C)CN2CCCC2)cc1 (stereo not given)	0.05	-1.3
CCOCCn1c(=O)c2c(nc3n2CC(C)CN3CCc2ccccc2)n(C)c1=O (stereo not given)	1.7	-0.44
CC(C)=CCCC(C)CN1CCC(N2CCC(C(=O)N3CCCC3)CC2)CC1 (stereo not given)	1.4	-0.03
Cc1cc(C)c(NS(=O)(=O)c2ccc3c(c2)NC(=O)CCS3)c(C)c1	0.11	0.25
Cc1ccccc1OCCC(=O)Nc1ccc(Cl)cc1F	0.04	0.97
CCOc1ccc2nc(C(=O)N3CCCC(C)C3)sc2c1 (stereo not given)	0.05	1.4
CCc1ccccc1NC(=S)/N=C(\N)Nc1nc(C)c2cc(C)ccc2n1	0.33	-1.4
COc1ccc(C(=O)COc2ccccc2C#N)cc1	0.22	0.02
Cc1cccc(NC(=O)C2CCCN2C(=O)NC2CCCCC2)c1 (stereo not given)	1.9	-0.01
Cc1nnc(NC(=O)CSc2nnc(Cc3cccn3C)n2-c2ccccc2)s1	0.35	-1.1
Cc1ccc(NC(=O)CSc2nnc(-c3ccco3)o2)c(C)c1	1.4	1.7
Cc1sc2ncnc(N[C@@H](CCC(=O)O)C(=O)O)c2c1C	1.1	0.92
COc1ccc(N2CCN(C(=O)Cc3ncc(C(F)(F)F)cc3Cl)CC2)cc1	0.99	0.6
Cc1ccc(C(=O)Nc2cccnc2)cc1S(=O)(=O)N1CCOCC1	0.05	1.8
CC(OC(=O)CCN=C1NS(=O)(=O)c2ccccc21)C(=O)Nc1ccc(F)cc1 (stereo not given)	0.4	-1
Cc1ccc(NC(=O)CCC(=O)NNC(=S)Nc2ccc(F)cc2)c(C)c1	0.88	0
O=C(O)c1cnn2c1C(=O)N(Cc1cccs1)CC2	0.98	1
CCN(CC)CCNC(=O)c1cc([N+](=O)[O-])c(N(C)C)cc1OC	0.02	-0.07
NC1=NC(=O)C(CC(=O)NCc2ccccc2)S1 (stereo not given)	1.1	-1.3
C/C(=N\NC(=O)c1c[nH]c2ccccc12)c1ccc2c(c1)OCO2	1.2	-2
COc1ccc(NS(=O)(=O)c2ccc3c(c2)oc(=O)n3C)cc1Cl	0.03	-0.15
CCN1CCN(CC(=O)Nc2nc3ccc(C)cc3s2)CC1	1.6	1.6
O=S1(=O)CCC(N=Cc2cc(Br)ccc2O)C1 (stereo not given)	6.4*	-0.03*
COCCSc1ccccc1C(=O)Nc1cc(C)on1	0.04	-0.33
CCCC(=O)Nc1c(C(=O)OCC)oc2ccccc12	0.24	-0.01
O=S(=O)(Nc1ccc(Cc2ccncc2)cc1)c1ccc(Br)cc1	0.71	-1.8
O=c1[nH][nH]c(C(F)(F)F)c1C=Nc1ccccc1Cl	0.26	2.1
COc1cc2c(cc1OC)CN(S(=O)(=O)c1cccs1)CC2	1.4	0.02
Cc1cc(=O)n2c3ccccc3n(CC(O)CN3CCOCC3)c2c1C#N (stereo not given)	3.1	-1.1
Cc1[nH]c2ccccc2c1/C=N/NC(=O)Cc1cccs1	0.52	0.04
Cc1ccc(-n2nc(-c3ccco3)cc2C(=O)O)cc1	1.1	0.13
Cc1cccc(NC(=O)COc2coc(CN3CCc4ccccc4C3)cc2=O)c1	0.04	-2.1
CC1Cc2ccccc2N1C(=O)CSc1nn2c(=O)c(C(C)(C)C)nnc2s1 (stereo not given)	2.9	0.19
O=C(COc1ccc(S(=O)(=O)N2CCCC2)cc1)N1CCCCC1	0.88	0.27
O=S(=O)(c1cccs1)N1CCC(CO)(Cc2ccc(Cl)cc2)CC1	0.29	-1.2
c1ccc(-n2cnnc2SCc2cn3cccnc3n2)cc1	0.44	-0.45
O=C(O)c1cc(S(=O)(=O)N2CCCCC2)sc1Cl	0.5	2.2

Among those listed so far, six contain an NH in an aromatic ring.
SMILES	KCNQ2 pot	KCNQ2 pot baseline
Nc1nc(SCC(=O)Nc2ccccc2-c2ccccc2)n[nH]1	1	-0.42
Cc1ccc(S(=O)(=O)N2CCCC2C(=O)OCc2nc3sc(C)c(C)c3c(=O)[nH]2)cc1 (stereo not given)	0.28	-0.89
CC(c1n[nH]c(=S)n1-c1ccc(Cl)cc1)N(C)C (stereo not given)	0.43	-1.2
C/C(=N\NC(=O)c1c[nH]c2ccccc12)c1ccc2c(c1)OCO2	1.2	-2
O=c1[nH][nH]c(C(F)(F)F)c1C=Nc1ccccc1Cl	0.26	2.1
Cc1[nH]c2ccccc2c1/C=N/NC(=O)Cc1cccs1	0.52	0.04

Further results:
SMILES	KCNQ2 pot	KCNQ2 pot baseline
CC(OC(=O)CN1C(=O)c2ccccc2C1=O)C(=O)NC1CCCCC1 (stereo not given)	1.4	0.37
CC(=O)Nc1ccccc1/C=C/c1ccc2c(C)ccc(O)c2n1	0.08	1.2
C#CCNC(=O)C1=C[C@@H](c2ccccc2)C[C@@H](OCc2ccc(CO)cc2)O1	1.3	-1.2
CC(c1ccccc1)N1C(=O)c2ccc(C(=O)NCc3ccco3)cc2C1=O (stereo not given)	0.09	1.8
COc1ccc(-c2csc(NC(=S)NC(=O)c3cc4ccccc4o3)n2)cc1Br	2.8	1.1
CCOc1ccc(OCC)c(NC(=O)CCCN2C(=S)NC(C)(C)CC2C)c1 (stereo not given)	0.49	0.49
COc1ccc(OC)c(/C=N/NC2=NS(=O)(=O)c3ccccc32)c1	1.8	-1.6
CN(C(=O)C1CCCO1)c1nnc(-c2ccncc2)s1 (stereo not given)	0.23	-0.25
O=C(CN1C(=O)c2ccccc2C1=O)NCCOc1ccccc1	2.1	-1.3
CCCOc1ccc(NC(=O)C2OC3OC(C)(C)OC3C3OC(C)(C)OC23)cc1 (stereo not given)	0.44	-0.21
Cc1cccc(C2c3[nH]c4ccccc4c3CCN2C(=O)c2cn(C)c3ccccc3c2=O)n1 (stereo not given)	0.25	-0.83
Cc1nc(-c2ccc(Cl)cc2)sc1C1(C)CC(c2cccc(Cl)c2)=NO1 (stereo not given)	1.4	-0.87
CCOC(=O)N=S(N)(=O)c1ccc(Cl)cc1 (stereo not given)	2.1	0.32
CC1(C)Cc2nc3oc4c(=O)n(CC(=O)Nc5ccc(Cl)cc5)cnc4c3cc2CO1	1.2	0.18
COc1cccc(CC2(CO)CCCN(Cc3ccc(C)s3)C2)c1 (stereo not given)	1.1	0.66
O=C(CNC(=O)C1(c2ccccc2)CC1)Nc1ccc(F)c(F)c1	0.32	1.7
COc1ccc(CNC(=O)Nc2cccc(C)c2)cc1	1.3	-0.18
CC(C)CC(O)C1CCN(C(=O)CCc2nnc(-c3ccccc3)o2)CC1 (stereo not given)	0.32	-1.9
O=C(COc1ccc(S(=O)(=O)NC2CCCC2)cc1)NCC1CCCO1 (stereo not given)	0.84	1.9
CCN(CC)CCCNC(=O)CC1Oc2ccc(C)cc2NC1=O (stereo not given)	0.48	0.49
Cc1c(C)c2ccc(OCC(=O)Nc3cccnc3)c(C)c2oc1=O	0.64	0.18
CCOc1ccccc1C1C(C(=O)Nc2ccccc2OC)=C(C)Nc2nc(CCCO)nn21 (stereo not given)	0.34	-1.3
C=CCOc1ccc(/C=C2\SC(=S)N(NS(=O)(=O)c3ccccc3)C2=O)cc1	4.1	-0.73
Cn1cccc1Cc1nnc(SCC(=O)NCc2ccc(F)cc2)n1-c1ccc(F)cc1	3.4	-0.68
COc1ccc(S(=O)(=O)N/N=C\c2ccc3c(c2)OCO3)cc1	0.04	0.37
COc1cc([N+](=O)[O-])ccc1NC(=O)Nc1ccc(C(=O)N2CCCC2)cc1	0.03	0.16
Clc1ccc(-c2ccnc(Oc3ccc4ccccc4c3)n2)cc1	0.46	1.2
Cn1c(N)c(C(=O)COC(=O)COc2ccc3ccccc3c2)c(=O)n(C)c1=O	0.46	1.1
C1CN(c2nc3nonc3nc2N2CCSCC2)CCO1	0.16	1.9
COCC(=O)Nc1ccc(S(=O)(=O)Nc2ccccn2)cc1	0.09	-1.8
CC1(C)C(=O)N(OCc2ccccc2)C(C)(C)C(=O)N1OCc1ccccc1	0.66	0
O=C(CSc1nnc(C2CC2)n1Cc1ccccc1)N1CCN(S(=O)(=O)c2ccccc2)CC1	0.72	-2.3
COc1ccccc1Oc1cn[nH]c1-c1ccc(OCC(=O)NN)cc1O	1.2	2
CCOC(=O)/C(C#N)=C(C)/C=C1\Sc2ccccc2N1CC	0.05	0.05
CNC(=O)C1CCCN1S(=O)(=O)c1ccc(OC)cc1 (stereo not given)	1.4	0.64
CCOC(=O)N1CCN(S(=O)(=O)c2cc([N+](=O)[O-])ccc2C)CC1	0.1	-0.1
Clc1c(-c2nnc3n2CCC3)sc2ccccc12	0.7	0.36
CC(Sc1nnc(-c2ccco2)n1C)C(=O)N(C)C1CCCCC1 (stereo not given)	2.1	-0.03
COc1ccc(CCNC(=O)c2cc(-c3ccccc3)c(N3CCOCC3)s2)c(OC)c1OC	0.19	-1.2
Cc1cc(Cl)ccc1OCCCC(=O)Nc1cccnc1	0.23	2.5
Cc1cc(C(F)(F)F)cc(NNC(=O)NC(=O)c2ccc(Cl)cc2)n1	0.25	-0.49
Cc1c(Cl)c(C(=O)NC2C3CC4CC(C3)CC2C4)nn1C (stereo not given)	0.05	0.01
COc1cc2c(cc1NC(=O)C(C)N1CCN(S(=O)(=O)c3ccccc3[N+](=O)[O-])CC1)oc1ccccc12 (stereo not given)	0.85	0.13
